YB-1 expr inh – YB-1 expression inhibition | delta delta Cp (YB-1 minus CDIP) (test concentration not listed) | AID 434959 | 30,000 compounds, 0.37% hits | U2OS, qRT-PCR YB-1 vs CDIP delta delta Cp, 16 h; stronger effect = higher value; zero = DMSO, each unit about twofold;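 active = delta delta Cp rounded down to an integer at or above 3, about 3 SD of DMSO wells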;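 note: higher means less YB-1 transcript or more CDIP transcript relative to DMSO; stock transfer was 100 nL into about 100 µL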
Hedgehog inh – blocks Sonic Hedgehog signaling | Shh-LIGHT2 Gli-luciferase reporter, 30 h | inhibition, % (no concentration beside the values) | 22,000 compounds, 2.1% hits | AID 2313;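 active = replicate mean of 65% or more; inconclusive = mean lower but half the replicates past it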;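 note: pathway switched on by Shh-conditioned medium diluted 1 in 25 in low serum; 100 nL library stock added to about 40 µL; 0% = median of neutral wells and 100% = positive control level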
MITF inhib – MITF inhibition | TRPM1 promoter luciferase, luminescence, 24 h | 37,000 compounds, 0.28% hits | inhibition, % (no concentration beside the values);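 active = most replicates at 85% or more, or half of them and the mean; inconclusive = half reach 85% but not the mean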;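 note: human melanocyte line stably carrying TRPM1 promoter luciferase reporter; 0% = vehicle wells and 100% = a positive control; the first replicate is given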
PD-1 reversal – activators reversing PD-1 mediated T-cell inhibition. activation, % (test concentration not listed). primary human CD4 T cells, PD-L1 beads, CellTiter-Glo 96 h. 29,000 tested, under 10 active;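 active = replicate mean of 50% or more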;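 note: 0% = median vehicle wells and 100% = positive control; 100 nL library stock added to about 50 µL; numbers are from one replicate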
The depositor's hits bear a star; ? = inconclusive; . = no result given. This is a subset, so the mix of outcomes need not match the whole.

SMILES	YB-1 expr inh	Hedgehog inh	MITF inhib	PD-1 reversal
CCc1ccccc1OCC(=O)Nc1cc(OC)ccc1OC	.	.	-57.2	-3.3
COc1ccc(CN(C)C[C@@H]2Oc3ccc(NC(=O)Nc4ccc(C(F)(F)F)cc4)cc3C(=O)N([C@@H](C)CO)C[C@@H]2C)cc1	0.0728	28.4	-5.1	0.9
CC1=NS(=O)(=O)c2cc(Cl)ccc2N1	-0.0666	-16.3	-8.2	2.0
Cc1sc2ncnc(SCC(=O)NCc3ccccc3)c2c1C	.	.	1.1	-1.0
C[C@@H]1CCCCO[C@H](CN(C)C)[C@@H](C)CN([C@H](C)CO)C(=O)c2cc(NS(=O)(=O)c3cn(C)cn3)ccc2O1	0.00925	7.9	-5.6	.
C[C@@H]1CN([C@H](C)CO)C(=O)c2cc(NC(=O)Cc3ccccc3)ccc2O[C@@H]1CN(C)C	-0.0495	.	-4.5	-0.6
C[C@@H]1CN([C@@H](C)CO)C(=O)c2cccc(NC(=O)Nc3ccc(F)cc3)c2O[C@H]1CN(C)CC1CC1	0.146	-80.6	10.1	.
C[C@@H]1CN([C@H](C)CO)C(=O)c2cccc(NC(=O)C3CCCCC3)c2O[C@H]1CN(C)CC1CCCCC1	-0.0822	6.0	18.2	-4.6
O=C(CCN1C(=O)c2ccc([N+](=O)[O-])cc2C1=O)Nc1cccc(I)c1	.	.	-15.1	1.4
COc1cccc2cc(C(=O)C3C(=O)C(=O)N(Cc4ccco4)C3c3cccnc3)oc12 (stereo not given)	.	.	-1.8	2.4
COc1ccc(OC)c(CN=c2c([N+](=O)[O-])nn(-c3ccc(Cl)cc3)n2O)c1	.	.	31.4	-1.0
CSc1ccccc1NC(=O)Cn1c(-c2cscn2)nc2ccccc21	.	.	-7.2	-0.2
CC1=C(c2ccc(C)cc2)[N+](=O)C(C)(C)N1[O-]	-0.244	-32.5	-4.6	1.0
C[C@@H]1CCCCO[C@@H](CN(C)C(=O)Cc2ccccc2)[C@@H](C)CN([C@H](C)CO)C(=O)c2cc(NC(=O)c3ccccc3)ccc2O1	-0.505	-23.4	-6.1	-3.3
C[C@@H]1CCCCO[C@H](CN(C)Cc2ccncc2)[C@@H](C)CN([C@H](C)CO)C(=O)c2cc(NC(=O)Nc3ccccc3)ccc2O1	0.237	8.8	4.9	.

Part of the list above in another layout:
smiles: C[C@@H]1CN([C@H](C)CO)C(=O)c2cccc(NC(=O)C3CCCCC3)c2O[C@H]1CN(C)CC1CCCCC1
  YB-1 expr inh: -0.0822
  Hedgehog inh: 6.0
  MITF inhib: 18.2
  PD-1 reversal: -4.6
smiles: C[C@@H]1CCCCO[C@H](CN(C)C)[C@@H](C)CN([C@H](C)CO)C(=O)c2cc(NS(=O)(=O)c3cn(C)cn3)ccc2O1
  YB-1 expr inh: 0.00925
  Hedgehog inh: 7.9
  MITF inhib: -5.6
  PD-1 reversal: .
smiles: COc1ccc(CN(C)C[C@@H]2Oc3ccc(NC(=O)Nc4ccc(C(F)(F)F)cc4)cc3C(=O)N([C@@H](C)CO)C[C@@H]2C)cc1
  YB-1 expr inh: 0.0728
  Hedgehog inh: 28.4
  MITF inhib: -5.1
  PD-1 reversal: 0.9
smiles: COc1ccc(OC)c(CN=c2c([N+](=O)[O-])nn(-c3ccc(Cl)cc3)n2O)c1
  YB-1 expr inh: .
  Hedgehog inh: .
  MITF inhib: 31.4
  PD-1 reversal: -1.0

Next part
SMILES	YB-1 expr inh	Hedgehog inh	MITF inhib	PD-1 reversal
C[C@@H]1CN([C@@H](C)CO)C(=O)c2cc(NC(=O)C3CC3)ccc2O[C@H]1CN(C)S(=O)(=O)c1cn(C)cn1	-0.0773	8.1	-6.8	1.0
COC(=O)c1ccc2c(=O)n(-c3ccccc3)c(SCC(=O)Nc3ccccc3)nc2c1	.	.	-4.3	-3.0
O=C(NCCN1CCOCC1)C(=O)Nc1cccc(F)c1	.	.	-60.0	1.2
C[C@@H]1CN([C@@H](C)CO)C(=O)Cc2cc(NC(=O)Nc3ccc4c(c3)OCO4)ccc2O[C@@H]1CN(C)Cc1ccc(Cl)c(Cl)c1	0.0857	-9.5	12.6	-1.9
Cc1c(Cl)cccc1NC(=O)CN(c1ccc(F)c(Cl)c1)S(C)(=O)=O	.	.	-16.1	-2.3
Cc1noc(C)c1NC(=O)N(C)C[C@H]1Oc2ccc(NC(=O)Cc3cn(C)c4ccccc34)cc2CC(=O)N([C@@H](C)CO)C[C@H]1C	-0.088	-0.9	-0.1	0.9
COC(=O)C1=C(N)C(C(=O)OC)=c2s/c(=C/c3ccccc3)c(=O)n2C1c1ccccc1 (stereo not given)	-0.185	-47.1	-22.3	5.1
O=C(c1ccccn1)c1ccc2ccccc2n1	-0.446	-12.0	-11.8	0.3
Cc1ccccc1CN(CC(N)=O)S(=O)(=O)c1ccc(Cl)cc1	.	.	1.3	3.6
C[C@H]1CN([C@@H](C)CO)C(=O)Cc2cc(NC(=O)C3CCCCC3)ccc2O[C@H]1CN(C)S(C)(=O)=O	-0.603	.	-6.5	-0.5
Cc1ccc(S(=O)(=O)N(C)C[C@H]2Oc3ccc(NC(=O)Nc4ccc(F)cc4)cc3CC(=O)N([C@H](C)CO)C[C@H]2C)cc1	-0.177	34.2	28.0	-1.8
C[C@@H]1CN([C@H](C)CO)C(=O)Cc2cc(NS(=O)(=O)c3cccs3)ccc2O[C@@H]1CN(C)C(=O)Nc1ccc(F)cc1	0.213	16.4	7.5	-2.7
COc1cc(-c2oc3cc(O)c(OC)c(O)c3c(=O)c2O[C@@H]2O[C@H](CO[C@@H]3O[C@H](CO)[C@@H](O)[C@H](O)[C@H]3O)[C@@H](O)[C@H](O)[C@H]2O[C@@H]2OCC(O)(CO)[C@H]2O)ccc1O (stereo not given in full)	-0.133	-28.5	6.9	3.1
C[C@@H]1CN([C@H](C)CO)C(=O)Cc2cc(NC(=O)NC3CCCCC3)ccc2O[C@H]1CN(C)Cc1ccc2c(c1)OCO2	0.215	?	-0.5	1.0
C[C@H]1CN([C@@H](C)CO)C(=O)Cc2cc(NC(=O)NC3CCCCC3)ccc2O[C@H]1CN(C)C	-0.589	.	-13.3	0.5
O=S(=O)(c1ccccc1)N1CCN(CC(O)COc2ccc3c(c2)CCC3)CC1 (stereo not given)	.	.	-3.2	-1.2
Cc1nnc(SCc2cc(=O)[nH]c(Nc3nc(C)c4ccccc4n3)n2)s1	.	.	-27.9	0.5
C[C@H]1CN([C@@H](C)CO)C(=O)c2cc(NC(=O)Nc3cccc4ccccc34)ccc2O[C@@H]1CN(C)S(=O)(=O)c1cn(C)cn1	-0.0751	.	1.4	3.7
CC(=O)NC1CCCCc2sccc21 (stereo not given)	-0.565	.	-0.2	-0.5
C[C@H](CO)N1C[C@H](C)[C@H](CN(C)S(C)(=O)=O)Oc2ccc(NC(=O)Nc3ccc(F)cc3)cc2CC1=O	0.111	-10.0	-10.4	3.5
CCOc1cc(C)c(Cl)cc1S(=O)(=O)n1cnc2ccccc21	.	.	-28.4	-1.2
C/C(=C(/CCO)SSCC1CCCO1)N(C=O)Cc1cnc(C)nc1N (stereo not given)	0.13	-29.1	-7.8	.
O=c1cc(CSc2ccc(Cl)cc2)nc(N2CCN(Cc3ccc4c(c3)OCO4)CC2)[nH]1	-0.266	-11.3	6.0	1.0
CNC[C@@H]1Oc2c(NC(=O)Nc3ccc(OC)cc3)cccc2C(=O)N([C@@H](C)CO)C[C@H]1C	0.771	?	1.9	0.6
C[C@H](CO)N1C[C@H](C)[C@@H](CN(C)C(=O)NC2CCCCC2)Oc2c(cccc2N(C)C)C1=O	-0.405	-35.1	-1.1	2.1
Cc1ccc(/C(C#N)=C/c2ccc(N(C)C)cc2)cc1	-0.393	-88.1	41.8	-1.9
C[C@@H]1CN([C@H](C)CO)C(=O)c2cc(NC(=O)Cn3cnnn3)ccc2O[C@@H]1CN(C)Cc1ccncc1	-0.27	.	-5.5	.
Cc1ccc(S(=O)(=O)N(C)C[C@@H]2OCCCC[C@@H](C)Oc3ccc(NC(=O)c4ccncc4)cc3C(=O)N([C@H](C)CO)C[C@@H]2C)cc1	-0.124	-8.0	-3.3	.
C[C@H](CO)N1C[C@H](C)[C@H](CN(C)C(=O)Nc2ccc(F)cc2)Oc2ccc(NC(=O)Nc3ccccc3)cc2C1=O	0.12	-28.7	-19.4	-3.1
CS(=O)(=O)N(CC(=O)Nc1c(F)cccc1F)c1ccc(I)cc1	.	.	-46.8	0.6
Cc1noc(C)c1S(=O)(=O)N(C)C[C@H]1Oc2ccc(NC(=O)Nc3ccc4c(c3)OCO4)cc2C(=O)N([C@@H](C)CO)C[C@H]1C	0.443	.	-17.6	.
CC(=O)c1c(C)n(-c2ccc(C)cc2)c2ccc(OC(=O)CN3C(=O)c4ccccc4C3=O)cc12	.	.	-7.1	-0.7
Cc1ccc(N(C(C)C(=O)Nc2ccccc2Cl)S(C)(=O)=O)cc1 (stereo not given)	.	.	2.7	-2.5
O=c1nc(Nc2ccc(OC(F)(F)F)cc2)oc2ccccc12	-0.0747	-100.8	-13.2	0.6
C/C(=C\CCC1(C)C2CC3C(C2)C31C)C(=O)O (stereo not given)	-0.352	-35.5	2.6	0.4
COc1ccc(NC(=O)Nc2ccc3c(c2)C(=O)N([C@H](C)CO)C[C@@H](C)[C@H](CN(C)Cc2ccc(-c4ccccc4)cc2)O3)cc1	-0.097	26.9	1.1	-2.7
COc1ccc(NC(=O)Nc2ccc3c(c2)C(=O)N([C@H](C)CO)C[C@@H](C)[C@H](CN(C)Cc2ccccc2)O3)cc1	-0.149	.	-2.2	-0.4
Cc1ccccc1-c1nc2cc(NC(=O)COc3ccc(Br)cc3)ccc2o1	.	.	-59.2	1.3
Cc1ccc(OCCSCc2nc3ccccc3[nH]2)cc1	.	.	56.6	-2.6
C[C@H]1CN([C@@H](C)CO)C(=O)c2cccc(NC(=O)Nc3ccccc3)c2O[C@@H]1CN(C)Cc1ccncc1	0.381	20.3	-3.3	-0.8
CCOC(=O)c1c(NC(=S)Nc2cc(C)nn2-c2ccccc2)sc(C)c1C	0.248	-6.8	-5.2	-1.0
C[C@H](CO)N1C[C@H](C)[C@@H](CN(C)Cc2ccc(Oc3ccccc3)cc2)Oc2ccc(NS(=O)(=O)c3ccc(Cl)cc3)cc2C1=O	0.385	-1.7	14.3	.
O=C(Cn1cnc2scc(-c3ccccc3)c2c1=O)Nc1ccc(Oc2ccccc2)cc1	.	.	25.4	4.6
CCOc1ccc(NC(=O)CSc2nc3ccccc3o2)cc1	.	.	-44.6	0.0
COc1ccc2nc(NC3=NC(c4ccccc4)CC(=O)N3)nc(C)c2c1 (stereo not given)	.	.	-1.2	-2.4
S=c1[nH][n+]2c(-c3ccccc3)cc(-c3ccccc3)nc2s1	0.446	.	-5.7	-0.5
Cc1noc(C)c1NC(=O)Nc1cccc2c1O[C@H](CN(C)Cc1ccc(C(F)(F)F)cc1)[C@H](C)CN([C@H](C)CO)C2=O	0.189	8.8	-11.1	0.4
C[C@@H]1CN([C@H](C)CO)C(=O)Cc2cc(NC(=O)Nc3ccc(F)cc3)ccc2O[C@H]1CN(C)Cc1ccc(C(=O)O)cc1	0.147	-16.1	3.2	0.8
S=C(c1nc2ccccc2[nH]1)N1CCOCC1	5.19*	1.9	-8.8	-0.4
COc1ccc(NC(=O)N(C)C[C@H]2Oc3ccc(NC(=O)CCC(F)(F)F)cc3CC(=O)N([C@@H](C)CO)C[C@H]2C)cc1	-0.19	-31.5	-0.4	-0.3
O=C(CSc1nc2ccccc2[nH]1)Nc1ccccc1N1CCOCC1	.	.	-5.6	2.6
Cc1ccc(S(=O)(=O)N(C)C[C@H]2Oc3ccc(NC(=O)Nc4ccccc4)cc3CC(=O)N([C@H](C)CO)C[C@H]2C)cc1	-0.306	30.8	16.4	-0.6
Cc1ccc(-n2c(C)nnc2SCC(=O)Nc2cc(Cl)ccc2C)cc1	.	.	7.1	-6.7
COc1ccc(OCc2nc3ccccc3n2Cc2ccccc2F)cc1	.	.	4.5	-2.8
Cc1noc(C)c1NC(=O)N(C)C[C@H]1Oc2ccc(NS(=O)(=O)c3c(C)noc3C)cc2CC(=O)N([C@@H](C)CO)C[C@@H]1C	0.0438	-21.1	2.1	.
Cc1noc(C)c1NC(=O)N(C)C[C@H]1Oc2ccc(NC(=O)Nc3ccc4c(c3)OCO4)cc2CC(=O)N([C@@H](C)CO)C[C@H]1C	-0.238	7.2	-6.7	0.7
O=C(NCc1cccnc1)c1cnn2c1NC(c1ccccc1)CC2C(F)(F)F (stereo not given)	.	.	-1.6	-0.1
C=C1C(=O)O[C@@H]2/C=C(/COC(C)=O)CC/C=C(/CO)CC[C@@H]12	0.182	-1.7	-31.1	-2.8
COc1ccc(NC(=O)N(C)C[C@H]2Oc3c(NC(=O)NC4CCCCC4)cccc3C(=O)N([C@@H](C)CO)C[C@@H]2C)cc1	-0.0335	6.8	6.2	0.2
COC1CC(OC2C(C)OC(OC3C(C)OC(OC4C(C)OCC(OC5C(O)C(O[C@H]6CC[C@@]7(C)C(=CC[C@]8(O)C7CC(OC(=O)c7ccccc7)[C@@]7(C)[C@]8(O)CC[C@@]7(O)C(C)=O)C6)OC(CO)C5OC5OC(CO)C(O)C(O)C5O)C4OC)CC3OC)CC2OC)OC(C)C1O (stereo not given in full)	-0.37	-4.9	-20.8	-2.1
C[C@@H]1CN([C@@H](C)CO)C(=O)c2cccc(NC(=O)c3ccc(-c4nccs4)cc3)c2O[C@H]1CN(C)C(=O)Nc1ccccc1	-0.295	6.3	12.5	1.3

Compound activity as filed in PubChem BioAssay.
